# Screening data (PubChem BioAssay)
# Vaccinia Venus = vaccinia inhibition (Venus reporter) | actives 0.46% (n = 330,000) | Potency, µM (top dose mostly 36.5 µM), inactives show at the highest dose activity change, negative = inhibition, usual class: inhibitors | AID 720580 | Vaccinia virus Venus reporter expression, fluorescence; active means well fitted inhibition curve with a large enough effect; inconclusive means small, poorly fitted or top-dose-only effect; inactive means no such curve, though single readings can be large or run the other way; tested in A549 cells; note: nearly all actives have a fitted effect of over 30% in size; inactives centre near -10
# VACV mCherry inh = vaccinia inhibition (mCherry reporter). Vaccinia virus mCherry reporter infection, fluorescence; about a quarter of the inactives have no number. Potency, µM (highest dose often 36.5 µM), inactives show at the highest dose activity change, negative = inhibition, actives largely listed as inhibitors. actives 0.63% (n = 310,000). AID 720579; active = well fitted inhibition curve with a large enough effect; inconclusive = small, poorly fitted or top-dose-only effect; inactive = no such curve, though single readings can be large or run the other way; tested in A549 cells; note: nearly all actives have a fitted effect of over 35% in size; inactives centre near -10
# The depositor's hits bear a star; i = inactive; ? = inconclusive; nt = no result given; [ ] = another dose, or the depositor's remark. % is set by controls: 0 for no effect and ±100 for the full control effect; potency is the fitted concentration of half-maximal effect.
mol	Vaccinia Venus	VACV mCherry inh
Cc1ccc(NC(=O)CN2C(=O)NC(C)(c3ccc(Cl)cc3)C2=O)cc1 (stereo not given)	-20%	i
C=CCn1c(SCn2nnc3ccccc3c2=O)nnc1-c1ccc(Br)cc1	-4%	-7%
COc1ccc(NC(=O)c2cc([N+](=O)[O-])ccc2N2CCCC2)cc1S(N)(=O)=O	-7%	-15%
COc1ccc(/C=N/NC(=O)c2c(C)nc3ccccn23)cc1[N+](=O)[O-]	-2%	i
O=C(Nc1cccc(-c2nc3ccccc3[nH]2)c1)c1ccc(C(=O)Nc2cccc(-c3nc4ccccc4[nH]3)c2)cc1	-6%	-1%
O=C(CN1CCN(c2ccccc2)CC1)N1N=CCC1c1ccccc1 (stereo not given)	-11%	nt
COCC1CCCCN1Cc1cn[nH]c1-c1ccc(OC)cc1OC (stereo not given)	-7%	-11%
COc1c(C)cccc1C(=O)Nc1ccc(CN2CCOCC2)cc1	-10%	-6%
CCCCCn1c(SCCCC)nc2c1c(=O)[nH]c(=O)n2C	-11%	-9%
COc1cccc(/C=C/c2nc(C#N)c(NC3CCCCC3)o2)c1	-29%	?
CCCCNC(=S)N(C)/N=C/c1ccc(F)cc1	-7%	-21%
COC(=O)[C@]1(CC(C)C)N[C@H](c2ccc(-c3cccc(Cl)c3)cc2)[C@@H]2C(=O)N(C)C(=O)[C@@H]21	-25%	?
Cc1cc(C)c2c(=O)nc(SCc3ccccc3C)n(C3CC3)c2n1	-23%	-10%
Cc1ccc2nc(SCCC#N)nc(C)c2c1	-5%	-24%
COc1cc2c(cc1OC)C(C)N(C(=O)Cn1ncc3c1-c1cc(C)ccc1OC3)CC2 (stereo not given)	-7%	-15%
Cc1ccc(C2c3[nH]c4ccccc4c3CCN2C(=O)CSCc2ccc(F)cc2)cc1 (stereo not given)	-21%	-17%
COc1ccc(CCNC(=O)C2CC(O)CN2S(=O)(=O)c2ccc(Cl)cc2)cc1OC (stereo not given)	-19%	-12%
c1ccc(CN2CCN(CCN3CCn4c3nc3ccccc34)CC2)cc1	-21%	-2%
COc1cccc(C(=O)NCC(=O)N2CCC3(CC2)NCCc2[nH]cnc23)c1	-6%	-23%
CCc1cccc(NC(=O)c2cc(S(=O)(=O)N3CCCCC3)ccc2N2CCOCC2)c1	-17%	-3%

# Shown as labelled records: part of the list above
COCC1CCCCN1Cc1cn[nH]c1-c1ccc(OC)cc1OC (stereo not given)
  Vaccinia Venus: -7% | VACV mCherry inh: -11%
COc1c(C)cccc1C(=O)Nc1ccc(CN2CCOCC2)cc1
  Vaccinia Venus: -10% | VACV mCherry inh: -6%
CCCCCn1c(SCCCC)nc2c1c(=O)[nH]c(=O)n2C
  Vaccinia Venus: -11% | VACV mCherry inh: -9%
COc1cccc(/C=C/c2nc(C#N)c(NC3CCCCC3)o2)c1
  Vaccinia Venus: -29% | VACV mCherry inh: ?

# The listing continues.
mol	Vaccinia Venus	VACV mCherry inh
O=C(NCc1ccccc1)C(C1CC1)n1c(Cc2cc(F)cc(F)c2)nc2ccccc21 (stereo not given)	-16%	-12%
C=CCCC(=O)N1C[C@H]2CON(C)[C@H]2C[C@H]1c1ccc(Br)cc1	-4%	-5%
COc1ccc(CNC(=O)C2(C)Cc3c(-c4ccc(N(C)C)cc4)ccnc3O2)cc1OC (stereo not given)	-9%	-20%
COc1ccc(C)cc1NC(=O)CSc1nnnn1Cc1ccccc1	-14%	-19%
Cc1cc(C)c2c(=O)cc(C(=O)Nc3sc4c(c3C#N)CCCC4)oc2c1	-11%	-15%
CC1(C)CC(NC(=O)CCc2ccccc2)CC(C)(C)N1	2%	nt
COc1cc2nc(-c3ccc(Br)o3)oc(=O)c2cc1OC	-17%	nt
c1cnc(NC2CCCCCC2)nc1	-2%	i
CC1(c2ccccc2)CC(c2ccccc2)=C(C#N)C(=O)N1 (stereo not given)	-7%	i
C/C(CC(=O)NC1CCCC1)=N\NC(=O)c1ccc([N+](=O)[O-])c(Cl)c1	6%	i
CC1CC(C)(C)NC2(CCCC2)N1 (stereo not given)	-10%	-13%
COC(C[C@H]1O[C@@H]1C(=O)COCc1ccccc1)OC	1%	i
Cc1ccc2c(c1)C(=O)C(=O)N2CC(=O)OC(C)C	-15%	nt
O=C(CCCCCn1c(=S)[nH]c2cc3c(cc2c1=O)OCO3)N1CCN(c2ccc(F)cc2)CC1	-24%	-18%
CN(C(=O)c1ccc2c(c1)OCO2)C1CCS(=O)(=O)C1 (stereo not given)	-5%	-8%
Cc1cnc(C(=O)Oc2ccc(-c3ccccc3)cc2)cn1	11%	?
O=C(N/N=C/c1c[nH]c2ccc(Br)cc12)c1ccncc1	-12%	i
COc1cc(C(=O)NC(=S)Nc2ccc([N+](=O)[O-])cc2)cc(OC)c1OC	-21%	-14%
COc1ccc(S(=O)(=O)c2cn(CC(=O)Nc3ccccc3)c3ccc(Cl)cc3c2=O)cc1	-3%	-9%
CCCC(=O)Oc1ccc(N(C(=O)CCC)S(=O)(=O)c2cccc([N+](=O)[O-])c2)cc1	-6%	-2%
COc1ccc(CNc2nc(-c3cccnc3)nn2C(=O)CC(C)C)cc1	0%	-13%
CC(C)CN(C(=O)COC(=O)c1ccc(Cl)nc1)c1c(N)n(Cc2ccccc2)c(=O)[nH]c1=O	1%	-16%
CCc1nc2ccc(C(=O)N3CCN(C(=O)c4ccco4)CC3)cn2c1N(C)CCC(C)C	0%	29%
COc1ccc(OCC(=O)NC(=S)Nc2ccc3c4c(cccc24)CC3)cc1	-11%	?
Cc1c(C(=O)NCc2ccccc2C(F)(F)F)sc(=O)n1Cc1ccc2c(c1)OCO2	-2%	1%
O=C(Nc1ccccc1F)C(=O)Nc1cccc2ccccc12	-7%	-1%
COc1ccc(-c2c(-c3cc(OC)cc(OC)c3)n(C)c3ccc(-c4ccc5c(c4)OCCO5)cc23)cc1	-4%	-8%
O=C(c1cccs1)N1N=C(c2ccccc2)CC1c1ccccc1 (stereo not given)	-18%	-14%
Cc1ccc2c(c1)CCCN2C(=O)c1cc(C)c(C)s1	-4%	-20%
COc1ccccc1CNc1cc(-c2cccc(NS(C)(=O)=O)c2)ncn1	17%	-1%
CCCN(CCC)C(=O)C1CCCN(c2ncnc3onc(-c4ccc(F)cc4)c23)C1 (stereo not given)	-16%	-14%
CCCNC(=O)C1(C)CCN(C(=O)c2ccc(F)c(Cl)c2)C1 (stereo not given)	1%	3%
COc1cc2c(O)c3c(c(-c4ccc5c(c4)OCO5)c2cc1OC)C(=O)OC3	?	?
CCN(Cc1ccccc1)C(c1ccccn1)c1nnnn1C1CCCCC1 (stereo not given)	-7%	nt
Cc1ccc(S(=O)(=O)N2CCOCC2)cc1C(=O)OCC(=O)NCc1ccccc1	-6%	i
CCOC(=O)c1c(NC(=O)CSc2nnc(CNc3ccc(Cl)cc3)o2)sc(C)c1C	?	?
COc1ccccc1-c1coc2c(CN3CCC(C)CC3)c(O)ccc2c1=O	-17%	i
Cc1nn(CC(=O)NCc2cccc(F)c2)c(=O)c2c(C)n(-c3ccc(Cl)cc3)nc12	-23%	i
Cc1cc(C(=O)Nc2nc3ccc(S(C)(=O)=O)cc3s2)c(C)o1	-14%	-7%
CC/C=C/C(=O)N1CC2(CC(c3cccc(NC(=O)CCCCC)c3)=NO2)C[C@H]1C(N)=O (stereo not given in full)	0%	i

# Continued.
# Values in the order – Vaccinia Venus | VACV mCherry inh
- N#Cc1ccc2nc(-c3ccc(CN4CCC(n5c(=O)[nH]c6ccccc65)CC4)cc3)c(-c3ccccc3)nc2c1
 : -28% | ?
- CN=C1N(C)C[C@@H]2[C@@H]3C(=O)N(Cc4ccccc4)C(=O)[C@@H]3[C@](Cc3ccccc3)(C(=O)OC)N12
 : -14% | i
- COc1ccc(N(C)S(=O)(=O)c2ccc3c(c2)n(C)c(=O)c(=O)n3C)cc1
 : -10% | i
- O=C(CN(C(=O)c1csnn1)c1ccccc1Cl)NC1CCCCC1
 : -1% | 5%
- CC(C)C[C@H]1CN(CCCC[C@@H]2CNC(=O)C(=O)N2Cc2ccccc2)C(=O)C(=O)N1Cc1ccccc1
 : 2% | 2%
- COC(=O)[C@]1(C)N[C@H](CN(C)C(=O)c2ccccc2)[C@@H]2C(=O)N(C)C(=O)[C@@H]21
 : -8% | i
- c1ccc(CN2CCc3nc4ccccc4cc3C2)cc1
 : -4% | -7%
- COc1cccc(NC(=O)CN(C)C(=O)CCC(=O)c2cc(C)sc2C)c1
 : 1% | -4%
- O=C(NC1CCOC1=O)c1ccccc1 (stereo not given)
 : 0% | -10%
- Cc1cc(C)c(S(C)(=O)=O)c(S(=O)(=O)c2ccc(Cl)cc2)n1
 : -25% | -11%[1.46 µM]
- COc1ccc(Cc2c(C)nn(-c3nc(C)c(C(=O)Nc4cccc(C(C)=O)c4)s3)c2C)cc1
 : ? | -8%
- CCc1cc2c(cc3c(=O)n(CC(=O)NCCc4ccc(OC)cc4OC)nc(CC)n32)s1
 : -4% | -13%
- O=C(NC(=O)c1cccc(F)c1)Nc1ccc(-c2cc(C(F)(F)F)nn2-c2ccccc2)cc1
 : -12% | -14%
- O=C(CSc1nnc(-c2ccccc2)n1-c1ccccc1)c1cccs1
 : -23% | -27%
- CCOC(=O)Nc1ccc(OC(=O)Oc2ccc(NC(=O)OCC)cc2)cc1
 : 4% | -6%
- Cc1cc(C)nc(NS(=O)(=O)c2ccc(NC(=O)COc3ccccc3F)cc2)n1
 : -3% | -21%
- COc1cc(NC(=O)Cn2nc3c(cc2=O)CC(C)CC3)cc(OC)c1OC (stereo not given)
 : -8% | -13%
- O=C(NNC1=NCCCCC1)Nc1ccc(Cl)cc1
 : -17% | -16%
- c1ccc(CCc2nc(-c3ccc(-n4cccc4)cc3)no2)cc1
 : -19% | -23%
- CC1CCc2sc3nc(N4CCN(CCO)CC4)n4ncnc4c3c2C1 (stereo not given)
 : ? | nt
- CC(C)(C)c1ccc(/C=C/C(=O)Nc2ncccn2)cc1
 : -4% | i
- COc1cc(C)c(C)cc1S(=O)(=O)n1c(C)nc2ccccc21
 : -5% | i
- Cc1ccsc1C(=O)N/N=C/c1ccc2c(c1)OCO2
 : -12% | i
- O=C(NC1CCCCC1)C(c1ccc2ncccc2c1)N(Cc1ccccc1)C(=O)c1cccs1 (stereo not given)
 : -23% | 0%
- COC(=O)[C@]12CCCCC=C1N(Cc1ccc(Cl)cc1Cl)C(=O)[C@H](CC(=O)NCc1cccc3ccccc13)C2
 : 1% | i
- CCOc1ccc(-n2c(SC(C)C(=O)OC)nc3c(c2=O)SCC3)cc1 (stereo not given)
 : -17% | i
- O=C(NCc1ccccn1)C(=O)NCC(c1ccco1)N1CCN(c2ccc(F)cc2)CC1 (stereo not given)
 : -7% | -23%
- C=CCn1c(SCc2csc(-c3ccc(Cl)cc3)n2)nnc1-c1ccccc1OC
 : ? | ?
- Cc1ccc(CNC(=O)c2ccc(CSCc3cccc(C)c3)o2)cc1
 : -1% | -3%
- COc1cc(CNCc2ccc(C(=O)O)cc2)ccc1OCc1ccc(F)cc1
 : -15% | -21%

# An excerpt of these results, as labelled records:
Compound: Cc1cc(C)c2c(=O)cc(C(=O)Nc3sc4c(c3C#N)CCCC4)oc2c1
  Vaccinia Venus = -11%
  VACV mCherry inh = -15%
Compound: CCOc1ccc(-n2c(SC(C)C(=O)OC)nc3c(c2=O)SCC3)cc1 (stereo not given)
  Vaccinia Venus = -17%
  VACV mCherry inh = i
Compound: Cc1cc(C)nc(NS(=O)(=O)c2ccc(NC(=O)COc3ccccc3F)cc2)n1
  Vaccinia Venus = -3%
  VACV mCherry inh = -21%

# Continuation:
# Values in the order – Vaccinia Venus | VACV mCherry inh
- CCC(C)NC(=O)CSc1nnc(-c2cc(-c3cccs3)nc3ccccc23)o1 (stereo not given)
 : 2.8µM* | nt
- COC(=O)c1cc(C#N)c(NCc2ccccc2)nc1C
 : -21% | i
- COc1cccc2c1OCC/C2=N\NC(=O)COc1ccccc1C
 : ? | -5%
- Cc1ccc(-c2cn3c(n2)sc2cc(C(=O)NCCC4=CCCCC4)ccc23)cc1
 : -9% | -8%
- CC(c1ccccc1)C1CC(=O)N(CC(=O)O)C1=O (stereo not given)
 : -3% | -7%
- COc1cccc(NC(=O)CN(C)C(=O)CNC(=O)c2ccc(Oc3ccccc3)cc2)c1
 : -26% | -8%
- CCC(=O)N1CCc2cc(Br)cc(S(=O)(=O)NC3CCN(Cc4ccccc4)CC3)c21
 : -16% | -10%
- C[C@H](NC(=O)c1ncn2c1c(=O)[nH]c1ccc(Br)cc12)c1ccccc1
 : 13µM* | ?
- O=C(NNc1cc(Cl)ccc1Cl)C1CCC1
 : -8% | i
- CC1(C(=O)NCc2ccco2)Cc2c(-c3ccc(C(N)=O)cc3)ccnc2O1 (stereo not given)
 : ? | -5%
- CNC[C@H]1Oc2c(NS(=O)(=O)c3cccs3)cccc2C(=O)N([C@H](C)CO)C[C@@H]1C
 : 2% | i
- Cc1ccc(C(=O)NCCc2csc(C)n2)cc1
 : -2% | -2%
- CCCCC(=O)Nc1ccc(C(=O)NNC(=S)NC(=O)c2ccccc2[N+](=O)[O-])cc1
 : -4% | i
- NC(=Nc1nc(-c2ccccn2)cc2ccccc12)c1ccccn1
 : ? | 0.32µM*
- CC(=O)Nc1cccc(C(=O)OCC(=O)NC(=O)c2ccccc2)c1
 : 0% | -5%
- Cc1ccc(C(=O)NCC(=O)Nc2ccc3c(c2)CCC3)cc1C
 : 0% | -12%
